D2 ag: Beta-Arrestin HTS for Positive Allosteric Modulators of the Human D2 Dopamine Receptor: Agonists | D(2) dopamine receptor (Homo sapiens), P14416 | DiscoveRx PathHunter D2 beta-arrestin, luminescence, 90 min; 100% = 57 uM dopamine signal | activation, % (concentration not given with the values) | hit rate 0.084% among 360,000 | AID 624465, 2012; in the data active = activation above about 40%; inconclusive = about 15% to 40%; inactive = below about 15%; note: compound concentration not given in the record; the text of the record calls up to 30% inactive
Target sequence (P14416 whole entry, looked up): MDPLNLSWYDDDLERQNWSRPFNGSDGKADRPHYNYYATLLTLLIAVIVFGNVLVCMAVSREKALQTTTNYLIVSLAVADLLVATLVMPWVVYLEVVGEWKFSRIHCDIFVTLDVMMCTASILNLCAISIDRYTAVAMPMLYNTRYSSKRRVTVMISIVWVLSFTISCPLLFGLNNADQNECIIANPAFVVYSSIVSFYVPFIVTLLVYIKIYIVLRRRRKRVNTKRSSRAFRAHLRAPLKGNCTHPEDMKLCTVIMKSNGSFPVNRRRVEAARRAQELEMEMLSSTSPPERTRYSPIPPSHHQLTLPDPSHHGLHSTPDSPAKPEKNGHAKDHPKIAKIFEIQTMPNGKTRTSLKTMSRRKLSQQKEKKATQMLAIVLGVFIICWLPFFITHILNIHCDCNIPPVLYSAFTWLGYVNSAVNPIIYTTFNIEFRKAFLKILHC
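Agonist mode: compounds alone added to overnight-plated D2 PathHunter cells for 90 min at 37 C, with 57 uM final dopamine (EC100) defining full response. Beta-arrestin recruitment detected by chemiluminescent reagent, read after 1 h at ambient temperature.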
TRPML1 ag: qHTS for Agonists of the Human Mucolipin Transient Receptor Potential 1 (TRPML1); AID 624414, 2012; activation, % (test concentration not listed); Mucolipin-1 (Homo sapiens), Q9GZU1; hit rate 0.12% among 410,000; TRPML1-expressing cells, Ca2+ dye fluorescence, FDSS; host cell line not named in the record; reference of the full effect not given here; in the data active = activation above about 50%; inconclusive = about 30% to 50%; inactive = below about 30%; note: 0% is about no effect; the text of the record puts the active cut at 80%
Target sequence (Q9GZU1 whole entry, looked up): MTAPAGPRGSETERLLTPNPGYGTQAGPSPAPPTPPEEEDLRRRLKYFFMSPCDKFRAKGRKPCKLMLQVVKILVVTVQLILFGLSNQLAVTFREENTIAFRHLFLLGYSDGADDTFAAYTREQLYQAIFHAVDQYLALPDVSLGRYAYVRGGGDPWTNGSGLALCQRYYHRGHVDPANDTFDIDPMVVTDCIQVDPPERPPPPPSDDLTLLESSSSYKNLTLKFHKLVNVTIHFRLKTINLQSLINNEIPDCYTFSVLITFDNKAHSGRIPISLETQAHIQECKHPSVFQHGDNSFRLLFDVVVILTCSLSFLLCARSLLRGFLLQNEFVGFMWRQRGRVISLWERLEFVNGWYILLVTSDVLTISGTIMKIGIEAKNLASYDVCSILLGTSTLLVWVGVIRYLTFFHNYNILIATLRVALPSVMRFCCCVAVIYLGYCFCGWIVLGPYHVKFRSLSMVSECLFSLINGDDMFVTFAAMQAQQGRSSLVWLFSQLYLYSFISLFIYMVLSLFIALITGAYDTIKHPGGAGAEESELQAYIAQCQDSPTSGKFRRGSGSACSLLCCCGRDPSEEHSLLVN
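TRPML1-DL cells, Tet-induced overnight (~16 h, 37 degrees C), loaded 45-90 min at room temperature with Ca8 no-wash calcium dye plus quencher. FDSS fluorescence: 10 s baseline, compound pin-transfer, 110 s agonist read, then EC80 54-4 (4uM final) and 110 s antagonist read.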
D2 PAM: Beta-Arrestin HTS for Positive Allosteric Modulators of the Human D2 Dopamine Receptor: Potentiators | AID 624464, 2012 | D(2) dopamine receptor (Homo sapiens), P14416 | potentiation, % (concentration not given with the values) | hit rate 0.23% among 360,000 | DiscoveRx D2 beta-arrestin cells, luminescence, 90 min; 100% = 57 uM dopamine signal; active = potentiation of 50% or more; inconclusive = 30% to 50%; inactive = 30% or less;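 note: compound concentration not given in the record; tested on top of an EC20 dose of dopamine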
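PathHunter beta-arrestin assay in DiscoveRx D2 cells. Compounds were added with an EC20 of dopamine (50 nM final) for 90 min at 37 deg C. Luminescence was read 1 h after detection reagent, with 57 uM dopamine as the EC100 control.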
TRPML1 blocker: qHTS for Inhibitors of the Human Mucolipin Transient Receptor Potential 1 (TRPML1) | TRPML1-inducible cells, Ca2+ dye fluorescence, FDSS; stronger effect = lower value; inhibition of EC80 agonist-evoked calcium signal | activity change, negative = inhibition, % (test concentration not listed) | AID 624415, 2012 | Mucolipin-1 (Homo sapiens), Q9GZU1 | hit rate 0.02% among 390,000; in the data active means activity change below about -50%; inconclusive means about -30% to -50%; inactive means above about -30%;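 note: stimulus is agonist 54-4 at its EC80 concentration; % is set by controls: 0 for no effect and ±100 for the full control effect; compound concentration not given in the record; the text of the record puts the active cut at -80%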
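Tet-induced TRPML1-DL cells loaded with Ca8 no-wash calcium dye were read kinetically on FDSS. Compound addition was followed by EC80 agonist 54-4 (4 uM final); inhibition was read over 110 s.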
Six1-Eya2 inh: qHTS Assay for Inhibitors of the Six1/Eya2 Interaction. Homeobox protein SIX1 (Homo sapiens) + Protein phosphatase EYA2 (Homo sapiens), …. AlphaScreen GST-Six1/His-Eya2 binding, biochemical; stronger effect = lower value; control for the full effect not named in the record. activity change, % (test concentration not listed). hit rate 0.56% among 360,000. AID 651725, 2012; in the data active = activity change below about -65%; inconclusive = about -30% to -65%; inactive = above about -30%; note: % is set by controls: 0 for no effect and ±100 for the full control effect; compound concentration not given in the record
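GST-Six1 + His-Eya2 (5X stock: 250/500 nM); Tris pH 8.0, 300 mM NaCl, 0.05% BSA, 0.02% Tween 20; GSH donor/Ni acceptor beads; 1 h 37 °C dark; AlphaScreen readout.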
PINK1 expr mod: A Quantitative High throughput Screen to Identify Chemical Modulators of PINK1 Expression; AID 624263, 2012; PINK1 immunofluorescence, high-content cytometry, 24 h; Potency, µM (doses to about 76.6 µM), for inactives: at the highest dose activation (PINK1 increase), actives largely listed as activators; hit rate 0.2% among 410,000; active = well fitted activation curve with a large enough effect; inconclusive = small, poorly fitted or top-dose-only effect; inactive = flat fitted curve, though single readings scatter; cell line not stated here;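 note: potency is the fitted concentration of half-maximal effect; % of control where 0% means no effect; nearly all actives have a fitted effect of over 65% in size; a mitochondrial uncoupler was the plate control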
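A stable cell line was treated with compounds at 5 concentrations for 24 hours, with CCCP as control. PINK1 levels and mitochondrial localization were measured by immunofluorescence with mitochondrial, cell and nuclear markers after fixation, read by laser-scanning cytometry.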
* hit, by the source's call; ? = inconclusive; nt = not tested or not shown; & = joins results of further samples; [ ] = remark or other dose. Compounds were not picked by outcome. Share with any hit: about 1%.

Structure,D2 ag,TRPML1 ag,D2 PAM,TRPML1 blocker,Six1-Eya2 inh,PINK1 expr mod
CCCCN(CC)CCCNC(=O)Cn1ncc2c3ccccc3n(Cc3ccc(F)cc3)c2c1=O,nt,-0.1,nt,-5.5,nt,-0.3%
CSc1ncc(C(=O)Nc2ccccc2C)c(C)n1,0.4,0.3,2.2,-6.1,-4.4,6.2%
COc1ccc(Cc2nc3ccc(C(=O)N(C)CCc4cnn(C)c4)cc3o2)cc1OC,-0.3,-0.2,16.0,-0.1,-0.4,0.9%
COc1cc(Cl)ccc1OCc1cc(C(=O)N2CCCCCCC2)no1,-1.9,6.8,-3.2,61.2,6.8,0.7%
CC(C)Cc1nc2oc3c(NCC(C)O)ncnc3c2c2c1CCCC2 (configuration not stated),-2.6,0.3,-2.7,7.1,-0.1,-0.4%
COc1ccc(CCNC(=O)Cc2ccc(C)cc2)cc1OC,-1.2,0.2,3.4,6.1,13.9,2.2%
COc1ccccc1CN1CCC(n2nccc2NC(=O)c2ccccc2Cl)CC1,-2.8,-0.9,-25.9,5.9,-2.1,-0.2%
Cc1cccc(C(=O)Nc2cccc(-c3cnc4ccccc4n3)c2)c1,0.0,1.4,-12.0,-4.0,4.6,?
Cc1ccc(-n2nnc(-c3cccnc3Cl)n2)cc1,-0.6,-0.9,-1.9,-7.9,9.1,0.9%
CC(C)CC(=O)Nc1ccc(C(=O)COC(=O)Cc2n[nH]c(=O)c3ccccc23)cc1,-1.7,0.1,-5.1,13.6,-1.0,0.1%
NC(=O)c1sc2nc3c(c(-c4ccco4)c2c1N)CCCC3,-1.1,0.7,-9.9,-6.2,-22.9,-0.2%
Cn1c(N)c(N=Cc2ccccc2)c(=O)n(C)c1=O,0.6,0.3,0.1,-1.9,11.3,-0.7%
Cc1ccc(OCC(=O)OC2=C(C(=O)c3ccccc3)N(C)S(=O)(=O)c3ccccc32)cc1,nt,-1.2,nt,-1.5,nt,3.1%
O=c1[nH]cnc2c1nc(SCc1ccccc1)n2C1OC(CO)C(O)C1O (configuration not stated),-2.2,-0.2,10.8,-0.8,2.1,-0.8%
CCN(CC)c1ccc(NC(=O)CNCc2ccccc2Cl)c(C)c1,3.3,1.6,-28.2,-0.4,?,0.6%
Cc1nc2c(C(=O)O)cnn2c(C)c1Cc1ccccc1,nt,3.9,nt,-13.3,nt,0.5%
COC(=O)/C(=C\c1c[nH]c2ccccc12)NC(C)=O,0.7,0.2,-11.7,-15.3,5.7,0.3%
Cn1c(N)c(C(=O)COC(=O)C(Cc2ccccc2)NC(=O)c2ccccc2)c(=O)n(C)c1=O (configuration not stated),-14.0,-0.7,-2.9,15.3,-8.3,0.9%
CCOc1ccc(NC(=O)C(=O)NCCc2csc3nc(-c4ccccc4F)nn23)cc1,nt,0.9,nt,26.9,nt,2.3%
Cc1c(C(=O)OCC(=O)c2c(N)n(CC(C)C)c(=O)n(C)c2=O)oc2ccccc12,-0.1,1.0,-4.1,28.3,5.0,1.5%
CCCOC(=O)c1ccc(NC(=O)c2nc3nc(C)cc(C)n3n2)cc1,-3.0,0.1,-7.6,-25.8,19.5,?
CC1(C)CC(C#N)(N2CCOCC2)CCO1 (configuration not stated),0.5,-0.7,4.5,-8.0,1.1,-3.2%[38.3 µM]
Cc1cc(C)c(NS(=O)(=O)c2cc(-c3onc(C)c3C)ccc2C)c(C)c1,nt,3.2,nt,53.3,nt,1.8%
CC1(C)NC(=O)N(CNc2cc(Cl)ccc2Cl)C1=O,-1.4,1.6,-0.1,5.3,3.3,1.6%
CC(C)(C)c1ccc(/C=C/C(=O)N2CCc3ccccc3C2)cc1,1.6,2.3,1.8,17.1,1.8,0.9%[38.3 µM]
COC(=O)c1c(NC(=O)c2cc(=O)c3ccc(C)c(C)c3o2)sc2c1CCCC2,nt,0.6,nt,-1.1,nt,3.9%
CS(=O)(=O)N1CCC(C(=O)Nc2cccc(Cl)c2Cl)CC1,1.0,-0.1,-0.4,17.4,1.2,-1.3%
COc1ccc(/C=C/C(=O)Nc2ccc(S(=O)(=O)N3CCOCC3)cc2)c(OC)c1,-1.8,-0.1,-2.3,-0.9,-13.6,3.4%
CCOCc1nnc(NC(C)=O)s1,-0.5,1.6,14.4,5.3,2.4,-1.8%
CC(=O)Nc1ccc(OC(=O)C(CCS(C)(=O)=O)N2C(=O)c3ccccc3C2=O)cc1 (configuration not stated),-3.9,0.8,-9.6,4.3,5.2,0.3%

Three entries drawn at random from the list so far, as already listed:
Structure,D2 ag,TRPML1 ag,D2 PAM,TRPML1 blocker,Six1-Eya2 inh,PINK1 expr mod
CC(=O)Nc1ccc(OC(=O)C(CCS(C)(=O)=O)N2C(=O)c3ccccc3C2=O)cc1 (configuration not stated),-3.9,0.8,-9.6,4.3,5.2,0.3%
CC1(C)CC(C#N)(N2CCOCC2)CCO1 (configuration not stated),0.5,-0.7,4.5,-8.0,1.1,-3.2%[38.3 µM]
CC(C)(C)c1ccc(/C=C/C(=O)N2CCc3ccccc3C2)cc1,1.6,2.3,1.8,17.1,1.8,0.9%[38.3 µM]

The list continues.
Structure,D2 ag,TRPML1 ag,D2 PAM,TRPML1 blocker,Six1-Eya2 inh,PINK1 expr mod
Cc1cccc2cc(CN(Cc3ccc(F)cc3)C(=O)C(F)(F)F)c3nnnn3c12,-0.9,1.6,-6.4,23.5,-7.6,9.5%
Cc1nc(-c2ccccc2)cn(O)c1=O,-4.5,0.4,-4.1,3.5,6.9,-1.3%
COc1ccccc1NC(=O)N(C1CCCC1)C1CCN(C(C)=O)CC1,-4.1,-0.4,0.0,-13.9,-3.7,0.1%
COCCCNc1nc(-c2ccncc2)nc2ccccc12,-0.2,-0.5,15.8,-17.1,-8.7,-1.3%
COc1cccc(NC(=O)c2ccc3nc(C)c(N(C)Cc4ccc(NC(C)=O)cc4)n3c2)c1,-2.9,-0.6,-9.0,nt,-3.7,0.4%
CC(=O)O/N=C1\C(=O)N(Cc2ccc(C)cc2)c2ccccc21,-2.5,1.3,-12.4,-0.3,-2.0,1.1%
COc1ccc(CCNC(=O)C2CC3Cn4c(nc5cc(C)c(C)cc54)C3N2C)cc1 (configuration not stated),-0.6,-0.7,-13.7,7.3,1.2,1.3%
Cc1ccc(NC(=O)C(C)Sc2nnc(C3CC3)n2C2CC2)cc1S(=O)(=O)N1CCOCC1 (configuration not stated),-1.1,1.0,5.9,-3.9,-1.5,1.6%
CC1CC2(CCCC2)N(C(=O)c2ccccc2)Cc2ccccc21 (configuration not stated),0.2,4.5,0.7,-18.0,24.1,11.7%
COc1ccc(CC(NC(C)=O)C(=O)NC2CCN(C(=O)C3CC3)CC2)cc1OC (configuration not stated),1.2,0.1,-12.8,-6.6,7.4,-1.1%
COc1ccc(CNC(=O)CSCc2cccc(Cl)c2)cc1,1.0,1.3,-14.9,-1.3,7.6,-0.7%
CCCCOCCCNc1ncnc2c1[nH]c1ccccc12,-2.8,-0.7,-3.9,-13.9,-0.1,7.2%[38.3 µM]
O=C(c1ccc(Nc2cccc(C(F)(F)F)c2)nc1)N1CCCC1,1.0,1.8,-14.6,59.0,-0.7,13.3%[38.3 µM]
Cc1ccccc1OCC(=O)Nc1cccc(S(=O)(=O)NC2=NCCC2)c1,1.1,-0.6,1.5,2.1,0.1,-0.1%
Cc1ccc(-n2c(O)c(C=Nc3ccc(S(=O)(=O)Nc4ncccn4)cc3)c3ccccc3c2=O)cc1C,0.0,-0.6,-9.5,-6.0,3.3,-0.3%
O=C(Cn1nc(-c2ccccc2)ccc1=O)NCc1ccc2c(c1)OCO2,0.4,-0.6,-7.9,4.3,-3.0,nt
Cc1c(C(=O)OC2CCCCCC2)[nH]c2c1C(=O)CC(c1ccc(N(C)C)cc1)C2 (configuration not stated),nt,0.7,nt,0.6,nt,0.3%
Cc1ccc(C)c(N2CCN(C(=O)Cn3cnc4nc5c(cc4c3=O)CCCC5)CC2)c1,nt,-0.8,nt,-25.2,nt,-0.5%
O=C(CCS(=O)(=O)c1ccc2c(c1)NC(=O)CS2)NCc1cccs1,-1.5,-0.5,-2.8,-23.7,19.2,-0.2%
Oc1ccc(/C(Cc2ccc3ccccc3n2)=N\Nc2ccccc2)c(O)c1,-0.7,1.2,-8.2,0.4,-15.9,-1.2%
COc1ccccc1CCNC(=O)CNC(=O)c1ccc2ccccc2c1,-2.6,-0.5&0.0,-10.8,-15.4,11.8,0.0%&-1.1%
Cc1ccc(N2C(=O)NC(NS(=O)(=O)c3ccccc3)(C(F)(F)F)C2=O)cc1 (configuration not stated),-4.4,3.2,-7.5,16.6,6.2,-0.1%
O=C(O)CCC(=O)N1CCN(c2nc(-c3ccccc3)c3ccccc3n2)CC1,-5.3,-0.7,-7.6,4.2,-8.9,0.2%
Cn1c(NCc2ccc(Cl)cc2)nc2ccccc21,-2.6,-0.8,-17.9,5.6,-2.1,0.5%
O=C(CO/N=C/c1c(Cl)cccc1Cl)NNC(=O)c1cccc(Cl)c1,-0.4,0.0,0.8,-10.5,1.8,2.8%
O=c1n(Cc2ccccc2F)c2ccccc2n1Cc1ccccc1F,-7.4,0.2,-11.8,-0.7,46.2,4.7%
COc1ccc(C2=Nc3ccc(C)cc3NC(c3ccc(Cl)cc3)=N2)cc1,nt,1.8,nt,-5.3,nt,-0.5%

Bioassay records (PubChem)
